# UUG fidelity: modulators of yeast start codon fidelity, primary screen, whole organism, S. cerevisiae, single point, plate reader. S. cerevisiae UUG-firefly luciferase reporter, luminescence/redox ratio. activity score, % at 18.7 µM. actives 0.13% (n = 350,000). AID 602363, 2012;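 active means replicate mean at a twofold rise or more, about +100% in these data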;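 further: firefly luciferase made from a UUG start codon reports start codon fidelity; reporter light over untreated wells divided by growth signal over untreated wells; some hits fall short of that in this replicate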
# eIF4H FP inh: human eIF4H binding inhibitors, primary screen, translation initiation inhibitor project, biochemical, uHTS, fluorescence polarization | Eukaryotic translation initiation factor 4H (Homo sapiens), Q15056 | eIF4H fluorescence polarization binding assay | inhibition, % at 35 µM | actives 0.94% (n = 290,000) | AID 2012, 2009;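 active means 50% or more with normal probe brightness, or confirmed in later tests; about a fifth of its hits are not listed in these tables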;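 further: calls also rest on retests at 20 µM and on dose response follow-up; 0% = protein and probe with vehicle and 100% = probe without protein; strong numbers were not always called active; many hits fall short of the cut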
# Env fusion inh: inhibitors of HIV-1 Env-driven cell-cell fusion, primary screen, HeLa-JRFL effector, CEM21 target cells, luciferase; AID 651610, 2012; inhibition, % at 12.3 µM; actives 1.1% (n = 360,000);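 active means mean replicate inhibition score of at least 50 and every replicate individually at or above 50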;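 further: 0% = plate neutral controls and 100% = maraviroc near 300 nM; one replicate is shown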
# MT1-MMP act inh: blockers of MT1-MMP proenzyme processing, primary screen, HT1080 RFP-PRO-GFP cells, GFP/RFP fluorescence | Matrix metalloproteinase-14 (Homo sapiens), P50281 | GFP/RFP ratio fluorescence, overnight; percent of plate control window, DMSO zero | GFP/RFP ratio change, % at 20 µM | actives 0.061% (n = 360,000) | AID 651647, 2012;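 active means GFP/RFP ratio change of at least 30% with cell ATP level not reduced by more than half and red fluorescence within 50% of control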; further: strong numbers were not always called active
#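 system = RFP-PRO-GFP reporter HT1080 cells | dosing = 20 µM single dose, 1% DMSO | timing = overnight cell settling, then overnight compound exposure, 37 °C, 5% CO2 | read-out basis = GFP/RFP fluorescence ratio | controls = DMSO and RFP-L50D-GFP cell wells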
# PABP FP inh: PABP poly(A) RNA binding inhibitors, primary screen, biochemical, fluorescence polarization, uHTS | inhibition, % at 35 µM | Polyadenylate-binding protein 1 (Homo sapiens), P11940 | actives 1% (n = 290,000);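 active means 50% or more with normal probe brightness, or confirmed in later tests; about a fifth of its hits are not listed in these tables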;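 further: calls also rest on retests at 20 µM and on dose response follow-up; controls were probe without protein and protein plus probe with vehicle; some compounds called inactive have numbers as strong as hits; many hits fall short of the cut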
# CSC inhib: cancer stem cell viability inhibitors, primary screen, luminescence; actives 1.1% (n = 300,000); cancer stem cell-like cells viability; inhibition, % at 7.5 µM;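 active means mean at 75% or more and at least half the replicates too; tested in HMLE shEcad cells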;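 further: 0% = median of negative and 100% = median of positive control wells; the first replicate is given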
# Rce1 inhib: yeast Rce1p protease inhibitors, primary screen, biochemical, fluorescence, cell-free homogeneous | CAAX prenyl protease 2 (Saccharomyces cerevisiae (strain ATCC 204508 / S288c)), Q03530 | yeast membranes, quenched prenylated peptide cleavage fluorescence | calls only | actives 0.27% (n = 290,000) | AID 2563, 2010;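 active means fall in fluorescence gain of 50% or more versus controls, with final raw signal at or below 3038400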;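 further: plate controls were neutral control wells for no effect and wells lacking membranes for full effect; tested at 10 µM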
# Target sequence (Q03530 whole entry, looked up): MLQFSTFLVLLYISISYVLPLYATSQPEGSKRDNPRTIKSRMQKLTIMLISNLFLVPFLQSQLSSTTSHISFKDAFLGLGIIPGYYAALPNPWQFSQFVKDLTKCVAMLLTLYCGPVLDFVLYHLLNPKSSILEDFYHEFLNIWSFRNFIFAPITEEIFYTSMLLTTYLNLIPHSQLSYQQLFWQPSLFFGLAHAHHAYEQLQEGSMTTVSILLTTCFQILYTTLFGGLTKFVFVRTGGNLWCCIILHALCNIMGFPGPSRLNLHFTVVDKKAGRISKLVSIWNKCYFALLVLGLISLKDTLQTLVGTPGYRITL
# eIF4H FP inh retest: further read-out of eIF4H FP inh, marked with its call; inhibition, %; compound at 20 µM; confirmation average;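 mean of two retest wells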
# PABP FP inh retest: also measured in PABP FP inh; calls as there; inhibition, %; compound at 20 µM; confirmation repeats;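 mean of two retest wells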
# MT1-MMP act inh RFP: second read-out of MT1-MMP act inh, no call of its own (marks repeat the call); RFP signal change, %; measured here: RFP expression control read;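 0 = vehicle wells; hits needed this value within 50% of zero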
# * marks the source's active call; other numbers are inactive results; i = inactive; x = no result given.
SMILES,UUG fidelity,eIF4H FP inh,Env fusion inh,MT1-MMP act inh,MT1-MMP act inh RFP,PABP FP inh,CSC inhib,Rce1 inhib,others
O=C(CC(c1cccs1)S(=O)(=O)c1ccccc1)c1ccc(F)cc1 (centres undefined),x,-6,x,2,8,-7,-13,i,
CC1CCCN(S(=O)(=O)c2cccc([N+](=O)[O-])c2)C1 (centres undefined),-17,5,25,2,2,8,-22,i,
CS(=O)(=O)N1CCc2cc(C(=O)Nc3ccc(Br)cc3)ccc21,-1,-12,-8,8,-6,3,-2,i,
CC1CN(CCC(=O)Nc2ccccc2F)CC(C)O1 (centres undefined),-10,-7,7,-2,2,-3,-3,i,
O=C(Cc1ccc(F)cc1)N1CCC(N2CCC(C(=O)N3CCOCC3)CC2)CC1,x,2,17,-3,2,-7,2,i,
CCOc1ccc(C(=O)Nc2cc3c(cc2N2CCCC2)n(CC)c(=O)n3CC)cc1OCC,-7,-7,3,7,6,4,3,i,
CC(C)NS(=O)(=O)c1ccc(CCC(=O)Nc2ccc3c(c2)OCCO3)cc1,x,-8,-6,-2,-1,-5,-6,i,
Cc1csc(NC(=O)CSc2ncn(-c3ccccc3)n2)n1,-17,2,-105,-3,-6,-6,13,i,
Clc1ccc(-n2nnnc2-c2cnc(-c3ccncc3)nc2-c2cccs2)cc1,-12,6,-16,-17,-18,6,-1,x,
C=CC[C@H](CC(=O)NCCO)C(=O)N[C@@H](COC(=O)[C@@H](CC=C)CC(=O)OC(C)(C)C)Cc1c[nH]c2ccccc12,15,x,-43,-1,3,x,-5,x,
COc1cc2c(cc1OC)CN(CC(=O)Nc1ccc3c(c1)OC(F)(F)O3)CC2,16,-12,11,-3,-1,-3,2,i,
Cc1ccc2nc3c(c(C(=O)O)c2c1)CCC3,-15,5,-21,-13,-3,27,7,i,
CCN1CCN(C(=O)C2CCN(C(=O)c3cc4sccc4n3CC)CC2)CC1,2,-3,-22,6,11,1,-5,i,
CCCNC(=O)C1CC(=O)N(c2ccc(OCC(=O)Nc3cc(C)cc(C)c3)cc2)C1 (centres undefined),-13,0,19,-1,2,16,6,i,
CCOc1ccc(NC(=O)CN(C)C(=O)CCNC(=O)c2ccc(Br)cc2)cc1OCC,-12,x,5,10,-2,x,-13,i,
Cc1ccc(C)c(S(=O)(=O)N2CCN(C(=O)C3CCN(C(=O)c4ccc(F)cc4)CC3)CC2)c1,x,x,1,1,-12,x,-6,i,
Nc1ccccc1SCC(=O)Nc1ccc(N2CCOCC2)cc1,-29,-3,-164,-1,0,-2,x,i,
CC(=O)Nc1ccc(S(=O)(=O)N2CCSC2)cc1,-21,2,9,3,1,10,-1,x,
O=C(COc1ccc(Cl)cc1Cl)NNC(=S)NCc1ccco1,x,10,-8,0,-3,8,0,i,
N#CC1=C(N)OC2=C(C(=O)CCC2)C1c1ccsc1 (centres undefined),-21,3,x,1,5,15,-2,i,

# By substructure: the entries above containing bromine.
SMILES,UUG fidelity,eIF4H FP inh,Env fusion inh,MT1-MMP act inh,MT1-MMP act inh RFP,PABP FP inh,CSC inhib,Rce1 inhib,others
CS(=O)(=O)N1CCc2cc(C(=O)Nc3ccc(Br)cc3)ccc21,-1,-12,-8,8,-6,3,-2,i,
CCOc1ccc(NC(=O)CN(C)C(=O)CCNC(=O)c2ccc(Br)cc2)cc1OCC,-12,x,5,10,-2,x,-13,i,

# Returning to the listing with the 2 entries that preceded the break.
SMILES,UUG fidelity,eIF4H FP inh,Env fusion inh,MT1-MMP act inh,MT1-MMP act inh RFP,PABP FP inh,CSC inhib,Rce1 inhib,others
O=C(COc1ccc(Cl)cc1Cl)NNC(=S)NCc1ccco1,x,10,-8,0,-3,8,0,i,
N#CC1=C(N)OC2=C(C(=O)CCC2)C1c1ccsc1 (centres undefined),-21,3,x,1,5,15,-2,i,
CCN=C1S/C(=C\c2ccc(Sc3ccc(Cl)cc3)o2)C(=O)N1CC,-8,-1,x,2,5,-4,-14,i,
CC1CCN(CCCOc2ccc(Cl)cc2Br)CC1,-11,1,-6,-1,1,-4,34,i,
c1coc(-c2ncc[nH]2)c1,-11,102*,x,2,2,128*,5,i,eIF4H FP inh retest=78*;PABP FP inh retest=53*
CCOC(=O)Cc1csc(NC(=O)CSc2nnc(C)n2C)n1,-4,13,1,-1,0,7,-11,i,
Nc1ncnc2c1ncn2[C@@H]1O[C@H](CNC(=O)[C@H](N)Cc2cscn2)[C@@H](O)[C@H]1O,-17,x,18,1,6,x,x,x,
O=S1(=O)N=C(N=Nc2c(O)[nH]c3ccccc23)c2ccccc21,x,-4,-3,2,5,1,-1,i,
O=C1C(Cc2ccccc2)Nc2ncnc(N3CCN(c4ccccc4)CC3)c2N1Cc1ccc(Cl)cc1 (centres undefined),-9,x,x,-20,-15,x,31,i,
Cc1ccc(C(=O)N2CCN(c3ccc4c(c3)C3CC4CCN3C(=O)OCc3ccccc3)CC2)cc1 (centres undefined),-9,x,33,-1,-21,x,x,x,
Cc1c(NC(=O)NC(=O)c2ccc(F)cc2)c(=O)n(-c2ccccc2)n1C,-4,0,x,2,4,-10,-4,i,
COC(=O)c1ccccc1NC(=O)Oc1ccc(F)cc1,-3,4,-10,0,6,-7,x,i,
CCOC(=O)c1c(NC(=O)CN2CCOCC2)sc2c1CCCC2=O,-7,-8,25,6,5,3,-12,i,
CCCCNCc1nc2ccccc2c(=O)[nH]1,x,-1,6,-5,-4,4,-12,i,
COc1cccc(/C=C2/SC(=O)N(C)C2=O)c1OCc1ccc(C(=O)O)cc1,x,0,14,-3,1,-8,9,x,
CC1(C)CC(=O)c2cc(OCC(=O)NCCN3CCOCC3)ccc2O1,-2,-4,-67,0,1,-10,-8,i,
O=C(Nc1ccc(OC(F)(F)F)cc1)Nc1cccnc1,-9,-6,-18,2,1,-4,9,i,
CCOC(=O)C1CCN(C(=O)COC(=O)c2ccc3[nH]c4c(c3c2)CCCC4)CC1,8,x,-1,5,1,x,x,i,
O=C(NC1CCCC1)c1cccnc1N1CCCCCC1,-13,-12,x,2,1,-5,-2,x,
CCOC(=O)c1oc2ccccc2c1CSc1nnc(-c2ccco2)o1,9,6,-42,1,1,-7,8,i,
CCC(C(=O)O)n1nnc(-c2ccc(OCc3ccccc3)c(OC)c2)n1 (centres undefined),x,-13,-6,x,x,-2,-7,i,
CCOc1ccc(C(=O)/C=C/c2ccccc2C(F)(F)F)cc1,x,-12,15,7,-3,-4,14,i,
CCN(CC(=O)Nc1c(F)cccc1F)C(=O)CCc1ccc(OC)cc1,x,-1,-5,0,3,-3,-13,i,
CCOC(=O)C1CCN(C(=O)Cn2cccc2C(=O)c2ccccc2)CC1,x,2,-15,1,3,-2,1,x,
COc1ccc(C)cc1NC(=O)Nc1cnccn1,x,0,-13,-3,0,-1,x,i,
O=S(=O)(c1ccccc1)c1ccc(N2CCCCCC2)cc1,-16,7,11,6,-5,-11,10,i,
Nc1nc(NC(=O)c2ccccc2Cl)nn1-c1ccccc1,-21,2,9,4,3,-2,-3,i,
Cc1[nH][nH]c(=O)c1C=NCc1ccc(Cl)cc1,-17,2,7,4,5,-4,0,i,
CCOC(=O)Nc1ccc2c(c1)N(C(=O)CN1CCN(CCO)CC1)c1ccccc1CC2,1,0,-41,0,1,2,-5,i,
CC(=O)OC1C(=O)N(Cc2ccccc2)C1c1ccc(C)cc1 (centres undefined),11,x,-3,-4,2,x,x,x,
O=C(CN(Cc1ccccc1)S(=O)(=O)c1ccc2c(c1)OCCO2)N/N=C/c1ccc(F)cc1,-10,-4,x,-6,-6,-5,-11,i,
CC1=NN(c2nc(-c3ccc(C)cc3)cs2)C(=O)C1N=Nc1ccccc1O (centres undefined),x,21,7,-20,68,7,55,i,
COc1ccc(Cl)cc1NC(=O)CN(C)C(=O)/C=C/c1ccco1,-2,x,-6,-2,0,x,11,x,
O=C(O)c1cn(-c2ccc(F)cc2)c2cc(N3CCNCC3)c(F)cc2c1=O,9,x,19,-8,-5,x,x,x,
CN(C)S(=O)(=O)c1ccc(C(=O)N2CCN=C2SCc2cccnc2)cc1,-5,6,-52,5,1,-1,x,x,
O=C(CC(NS(=O)(=O)c1ccc(Cl)cc1)c1ccco1)NCc1cccnc1 (centres undefined),-14,-10,x,4,0,-6,-3,i,
COc1ccc(Nc2nnc(SCC(=O)N(CC(C)C)C3CCS(=O)(=O)C3)s2)cc1 (centres undefined),-9,x,-50,-1,-4,x,x,x,
O=C(Nc1ccc(C#Cc2ccccc2)cc1)C1CC1,-15,7,-106,16,6,-12,62,i,
COc1ccc(-n2c(SCC(=O)NCC3CCCO3)nc3ccccc32)cc1 (centres undefined),x,78,x,-1,2,2,-13,x,eIF4H FP inh retest=0;PABP FP inh retest=4
Cn1c(=O)cc(OCC(=O)N2CCCc3ccccc32)c2ccccc21,11,1,-4,7,5,-3,-8,i,
COc1cc(C=O)c(Br)cc1OCC(=O)NCCc1ccccc1,-7,-8,16,-1,-1,-2,-5,i,
COc1ccccc1C(CNC(=O)c1cc(C)nc2ccccc12)N(C)C (centres undefined),-16,6,0,-5,0,-3,-20,i,
Cc1ccc(F)c(N=Cc2c(O)c3ccccc3oc2=O)c1,-19,24,-4,-7,0,6,-20,i,
O=C(c1ccccc1)c1cc(-c2ccccc2)on1,-74,-10,x,10,6,-2,-11,i,
Cc1ccc(N2CCN(CC(O)COc3cccc4ccccc34)CC2)cc1 (centres undefined),-10,-5,-9,1,6,-2,2,i,
COC(=O)c1ccc(C(=O)OC)c(NC(=O)C2CCCO2)c1 (centres undefined),-15,-5,10,1,4,-3,-10,i,
COc1cc(Cl)ccc1NC(=O)COc1ccccc1C(=O)NN,-3,-2,8,-5,1,-12,-19,i,
CC(C)c1ccccc1OCCNC(=O)c1cncc(Br)c1,-16,-4,-4,-3,-13,-13,2,i,
Cc1ccc(OCc2n[nH]c(=S)n2N)cc1C,-18,1,-3,4,6,8,6,i,

# Some of these compounds in order of length of the SMILES, low to high:
SMILES,UUG fidelity,eIF4H FP inh,Env fusion inh,MT1-MMP act inh,MT1-MMP act inh RFP,PABP FP inh,CSC inhib,Rce1 inhib,others
Cc1ccc(OCc2n[nH]c(=S)n2N)cc1C,-18,1,-3,4,6,8,6,i,
CC(C)c1ccccc1OCCNC(=O)c1cncc(Br)c1,-16,-4,-4,-3,-13,-13,2,i,
COc1cc(Cl)ccc1NC(=O)COc1ccccc1C(=O)NN,-3,-2,8,-5,1,-12,-19,i,

# Compound activity as filed in PubChem.
